# Screening results as filed in PubChem BioAssay.
# UCH37 inh: inhibitors of human deubiquitinating enzyme UCH37; Q9Y5K5; inhibition, % (no concentration beside the values); purified proteasome/UCH37, Ub-AMC cleavage fluorescence; 330,000 compounds, 0.33% hits;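 active = mean of two replicates above 20%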;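 also: 0% = compound-free wells with enzyme and 100% = wells lacking proteasome; stock transfer was 100 nL into about 20 µL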
# Target sequence (Q9Y5K5 whole entry, looked up): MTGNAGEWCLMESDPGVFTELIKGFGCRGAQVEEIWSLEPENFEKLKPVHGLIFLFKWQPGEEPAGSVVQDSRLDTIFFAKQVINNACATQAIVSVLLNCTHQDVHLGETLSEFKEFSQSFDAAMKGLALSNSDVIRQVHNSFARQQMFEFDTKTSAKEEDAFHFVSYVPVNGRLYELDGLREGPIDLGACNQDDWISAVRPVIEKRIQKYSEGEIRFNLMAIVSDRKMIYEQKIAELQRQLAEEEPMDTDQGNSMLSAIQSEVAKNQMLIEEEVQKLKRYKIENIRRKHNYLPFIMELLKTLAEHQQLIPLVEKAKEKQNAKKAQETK
#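 System: Proteasome-associated human UCH37 deubiquitinase; Input: 0.15 nM proteasome in added enzyme buffer; Also added: Ub-AMC substrate from 1 µM stock; Incubation: 30 min compound-proteasome preincubation then 25 min substrate reaction, room temperature; Detection: fluorescence, ex 355 nm, em 460 nm; Read-out: % inhibition of Ub-AMC cleavage fluorescence; Benchmarks: no-proteasome and no-compound wells.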
# Ecoli growth: E. coli growth inhibition. Escherichia coli growth, OD600, 23 h; hits give low values. OD600 absorbance (test concentration not listed). 330,000 compounds, 0.21% hits;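 active = OD600 absorbance below the run mean of sample wells minus 3.6 SD, in any replicate, cut at about 0.56 in these data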;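 also: stock transfer was 300 nL into about 60 µL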
# B2AR ag: activates human beta-2 adrenergic receptor causing internalization | P07550 | Am2.2-beta2AR cells, FAP receptor internalization, flow cytometry; reference of the scale not given here | response, % (no concentration beside the values) | 340,000 compounds, 0.43% hits | AID 504454;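 active = response above a set limit, near 3 SD of response in nonfluorescent compounds, cut at about 42% in these data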;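 also: stock transfer was 100 nL into about 11 µL; a reference agonist was the positive control; negative values mostly stem from fluorescent compounds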
# Target sequence (P07550 whole entry, looked up): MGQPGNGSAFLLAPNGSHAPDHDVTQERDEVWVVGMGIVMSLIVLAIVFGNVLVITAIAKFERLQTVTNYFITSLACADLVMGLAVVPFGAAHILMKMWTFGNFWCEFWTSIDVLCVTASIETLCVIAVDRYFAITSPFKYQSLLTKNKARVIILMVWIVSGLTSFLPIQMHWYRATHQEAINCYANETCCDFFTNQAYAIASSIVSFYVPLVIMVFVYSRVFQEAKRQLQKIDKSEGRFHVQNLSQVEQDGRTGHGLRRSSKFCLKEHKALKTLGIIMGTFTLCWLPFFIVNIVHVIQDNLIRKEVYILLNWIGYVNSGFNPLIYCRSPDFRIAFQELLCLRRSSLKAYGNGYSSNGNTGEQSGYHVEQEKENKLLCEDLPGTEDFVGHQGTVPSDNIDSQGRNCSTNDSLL
# FGF22 binding: binders of recombinant human FGF22 by thermal shift. SYPRO orange fluorescence; percent of sucrose octasulfate shift, DMSO zero. calls only at 9.99 µM. 340,000 compounds, 1.5% hits;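 active = melting point raised past a set limit in the mean and every replicate; inconclusive = no clear call; three in four hits are not shown here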
# HNF4A DNA FP: change in binding of human HNF4 alpha to DNA. P41235. HNF4a-FITC DNA binding, fluorescence polarization, 1 h. activity change, % at 10 µM. 360,000 compounds, 0.3% hits. AID 1224865; in the data active = activity change above about 30%, passing the limit was not always enough;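 also: controls were the assay level and a saturating level of protein; the project sought stronger binding though the title names inhibitors; some compounds called inactive have numbers as strong as hits; positive values seem to mean higher polarization but the record does not say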
# ALR inh: blocks human ALR sulfhydryl oxidase activity. P55789. purified ALR, DTT oxidation, H2O2 HRP-luminol luminescence. inhibition, % (no concentration beside the values). 290,000 compounds, 3.8% hits. AID 485317;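 active = mean and each replicate at 75% or more; inconclusive = only one of the two met; inactive = neither met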;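 also: stock transfer was 7.5 nL into about 7.5 µL; 0% = neutral wells and 100% = wells with inactivated enzyme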
# Target sequence (P55789 whole entry, looked up): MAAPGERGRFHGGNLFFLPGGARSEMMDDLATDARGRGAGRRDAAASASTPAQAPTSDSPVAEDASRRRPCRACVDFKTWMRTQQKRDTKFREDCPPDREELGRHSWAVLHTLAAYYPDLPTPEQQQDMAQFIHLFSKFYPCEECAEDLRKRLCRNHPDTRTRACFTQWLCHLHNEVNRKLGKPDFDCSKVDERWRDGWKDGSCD
# Ecoli rRNA inh: selective bacterial rRNA inhibition in E. coli; AID 720706; 350,000 compounds, 1.6% hits; GFP signal change (wild-type ribosome), % (concentration not given with the values); E. coli WT GFP vs humanized-ribosome RFP mutants, fluorescence, 24 h; hits give low values; DMSO median 0, no signal -100;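 active = significant combined selectivity score with lowered wild-type GFP, culture density cut under 30%, mutant RFP and density less affected; inactive = any of these conditions unmet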; also: one replicate is shown; some compounds called inactive have numbers as strong as hits
# Ecoli rRNA inh OD600: second read-out of Ecoli rRNA inh, no call of its own (marks repeat the call); OD600 change, %; measured here: OD600 growth;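 optical density of the mix in the first replicate; 0 = DMSO median and -100 = no signal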
# Ecoli rRNA inh RFP: second read-out of Ecoli rRNA inh, no call of its own (marks repeat the call); RFP signal change, %; measured here: RFP humanized mutant strains;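 first replicate; 0 = DMSO median and -100 = no signal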
# * = called active by the depositor; i = inactive; ? = inconclusive; nt = no result given; & = joins results of further samples. Only part of the results is shown; count on the stated rates, not on these rows.
SMILES,UCH37 inh,Ecoli growth,B2AR ag,FGF22 binding,HNF4A DNA FP,ALR inh,Ecoli rRNA inh,Ecoli rRNA inh OD600,Ecoli rRNA inh RFP
O=C(NCc1ccc(F)cc1)C1CCN(S(=O)(=O)c2cccc3nonc23)CC1,1.3,0.71,-2,i,14,-7,10,14,3.4
CN(CC(=O)Nc1ccccc1C(F)(F)F)C(=O)c1cccc(-n2cccc2)c1,5.3,0.69,4,i,-5.2,-1,5,6,-0.8
Cc1ccccc1OCCn1c(=S)[nH]c2c(N)ncnc21,1.9,0.65,13,i,-4.6,4,-7,-23,0.3
CCCOc1ccc(C(=O)Nc2ccc(NC(=O)c3cccs3)cc2)cc1,-7.7,0.72,-6,i,1.9,nt,14,12,1.3
COC(=O)C[C@@H]1CC[C@@H](NC(=O)NC2CCCC2)[C@@H](CO)O1,nt,nt,nt,i,1.6,nt,18,6,-0.7
CCc1noc(C)c1C(=O)N1CCN(S(=O)(=O)c2ccc(Cl)s2)CC1,3.9,0.69,0,nt,-1.6,-3,3,2,-1.4
O=[N+]([O-])c1cc(S(=O)(=O)N2CCCC2)ccc1O,6.1,0.72,-3,nt,3.5,-25,nt,nt,nt
Cn1cc(/C=C(\NC(=O)c2ccccc2)C(=O)N2CCOCC2)c2ccccc21,13,0.69,-4,i,4.5,52,2,1,-3.6
O=C(CN1CCN(S(=O)(=O)c2ccc(F)cc2)CC1)Nc1ccc2c(c1)OCO2,1.4,0.72,12,nt,0.0,-13,nt,nt,nt
CCCCCCCC[n+]1cccc(C(=O)N2c3c(nc(N)[nH]c3=O)NC(C)C2C)c1 (stereo not drawn),1.3,nt,5,nt,4.3,1,nt,nt,nt
COc1ccc(Cl)cc1NC(=O)c1nnn(CC(=O)Nc2ccc(C)c(C)c2)c1N,-6.5,0.7,-5,i,-2.9,-7,6,12,0.4
O=C(NNC(=O)C1CCCO1)c1ccc(Cl)cc1 (stereo not drawn),0.5,0.7,-5,nt,-2.4,nt,nt,nt,nt
Cc1nnc2n(c1=O)C(CS(=O)(=O)c1ccc3ccccc3c1)CS2 (stereo not drawn),1.1,0.75,-6,i,-0.2,-9,8,8,1.9
CSCCC1NC(=O)N(CC(=O)Nc2ccc(Cl)c(S(=O)(=O)N3CCOCC3)c2)C1=O (stereo not drawn),1.0,0.63,2,i,-1.3,-6,-5,-2,0.5
CCOc1ccc(NC(=O)c2cccc(-n3cnnn3)c2)cc1,-0.5,0.71,-6,nt,-0.3,-5,nt,nt,nt
CCN(CC)c1ccc(/C=N/Nc2nn[nH]n2)cc1,nt,nt,9,i,9.7,nt,4,11,-0.1
O=C(O)C1=C(C(=O)N2CCN(C(=O)c3ccco3)CC2)CCCC1,1.0,0.71,1,nt,-1.6,-5,nt,nt,nt
Cc1cc(O)cc2c1C(c1ccc(F)cc1)CC1(CC(C)(C)NC(=S)N1)O2 (stereo not drawn),2.5,0.72,3,nt,-0.8,4,nt,nt,nt
COc1ccc(CNC(=O)COc2ccc(S(=O)(=O)NC(C)C)cc2)cc1,2.2,0.65,1,nt,-1.1,1,nt,nt,nt
CCC(C(=O)NCc1ccco1)N(C(=O)CNS(=O)(=O)c1ccccc1)C1CCCCC1 (stereo not drawn),0.7,0.65,3,i,2.6,-3,-1,0,4.9
CCCCN=Cc1c(C)[nH]n(-c2ccccc2)c1=S,9.0,0.65,-6,i,1.1,31,15,14,0.0
CCc1nc(CN(C)C(=O)C2CCC(=O)N(CCc3cccc(F)c3)C2)no1 (stereo not drawn),-0.8,0.69,-4,i,1.7,-1,7,13,0.7
O=C(OCc1nc2ccccc2s1)c1ccc([N+](=O)[O-])o1,4.3,0.65,6,nt,3.5,-19,nt,nt,nt
CSc1ccc(CCNC(=O)c2ccc(CS(=O)Cc3ccccc3Cl)o2)cc1 (stereo not drawn),1.1,0.69,7,i,0.1,-6,-38,-41,-8.2
CCN(CC(=O)Nc1ccccc1C(F)(F)F)C(=O)CSCc1c(C)noc1C,2.3,0.7,-3,i,2.6,6,8,2,2.1

# Ordered by value in B2AR ag (descending): 3 of the compounds above
SMILES | B2AR ag
Cc1ccccc1OCCn1c(=S)[nH]c2c(N)ncnc21 | 13
COc1ccc(Cl)cc1NC(=O)c1nnn(CC(=O)Nc2ccc(C)c(C)c2)c1N | -5
CCOc1ccc(NC(=O)c2cccc(-n3cnnn3)c2)cc1 | -6

# (more compounds)
SMILES,UCH37 inh,Ecoli growth,B2AR ag,FGF22 binding,HNF4A DNA FP,ALR inh,Ecoli rRNA inh,Ecoli rRNA inh OD600,Ecoli rRNA inh RFP
Cc1ccc(NC(=O)CSCC(=O)N2CCN(C(=O)c3ccco3)CC2)cc1,1.6,0.69,-4,i,5.8,5,nt,nt,nt
CCn1c(CNC(=O)c2ccc(OC)cc2)nnc1SC,6.0,0.73,-3,i,-0.4,-1,8,17,1.6
COc1ccc2c(c1)c([C@@H]1[C@H](C)[C@H]3CCCC[C@H]3CN1S(=O)(=O)c1ccc(C)cc1)cn2C,2.7,0.73,14,i,-0.3,nt,3,10,-4.6
COc1ccc(OCC(=O)N/N=C(\C)c2cccs2)cc1,nt,nt,15,i,0.5,-1,-10,0,2.6
Cn1c(=O)[nH]c(=O)c2c1ncn2CCN1CCCCC1,0.4,0.72,-11,nt,0.8,0,nt,nt,nt
COc1cc(/C=N/NC(=S)NCC2CCCO2)cc(OC)c1OC (stereo not drawn),nt,nt,-2,i,1.6,16,-14,-6,-5.2
CN(C)c1nc2c(N)ncnc2n1C1OC(CO)C(O)C1O (stereo not drawn),nt,nt,10,i,3.7,nt,11,9,3.9
Brc1ccc(C2C3=C(Nc4ncnn42)c2ccccc2OC3c2ccncc2)cc1 (stereo not drawn),-33,0.7,5,nt,-2.1,-2,nt,nt,nt
C[C@]12C(=O)N(c3ccc(F)cc3)C(=O)N1[C@@H]1c3ccccc3OC[C@@H]1[C@H]2c1ccccc1,2.2,0.79,-1,i,1.5,-8,-25*,-14*,-5.2*
O=C(NC1CCCC1)c1ccc(Cn2c(=O)[nH]c3ccsc3c2=O)cc1,4.0,0.72,-3,i,-0.2,4,0,-1,-8.1
CCCCN1C(=O)C(=O)N(CC(=O)Nc2cccc(C(C)=O)c2)C1=O,0.6,0.67,-2,i,0.4,2,8,15,1.0
Cc1ccc(S(=O)(=O)c2cc3c(=O)n4cccc(C)c4nc3n(C3CCCCC3)c2=N)cc1,-3.7,0.69,-6,nt,2.4,2,nt,nt,nt
CCOC(=O)c1oc2nc(C(C)C)c3c(c2c1N)CC(C)(C)OC3,-395,0.73,-3,nt,-4.4,nt,nt,nt,nt
CSc1ccccc1NC(=O)c1onc(C)c1Cl,5.4,0.66,10,i,1.9,-3,-8,-9,-1.0
CCCC(=O)c1ccc(N2CCOCC2)c(F)c1,3.8,0.73,-4,nt,1.0,20,nt,nt,nt
O=S(=O)(Nc1cccc2cn[nH]c12)c1ccc(F)cc1,4.1,0.7,3,nt,2.7,39,nt,nt,nt
Nc1nc(NC(=O)CCC(=O)O)nn1-c1ccccc1,2.2,0.68,-4,i,1.9,-7,15,13,4.3
CCOC(=O)N1CCN(C(=O)CNC(=O)c2nn(-c3ccc(OC)c(OC)c3)c(=O)c3ccccc23)CC1,-3.6,0.65,14,i,-1.7,-1,8,16,-2.2
CCc1ccc2nc(SCC(=O)N3CCCCC3)c(C#N)cc2c1,-1.7,0.72,-6,nt,2.2,-8,nt,nt,nt
O=C(OCC(=O)N1CCCc2ccccc21)c1ccc(S(=O)(=O)C(F)F)cc1,1.6,0.68,0,i,2.6,nt,-3,-7,-2.7
CC1(C)Cc2c(C#N)c(OCC(=O)c3ccccc3)nc(-c3ccoc3)c2CO1,-37,0.73,6,nt,0.0,nt,nt,nt,nt
COc1ccc(CCC(=O)N2CC(C)OC(C)C2)cc1 (stereo not drawn),4.2,0.69,-2,nt,1.5,-10,nt,nt,nt
O=S(=O)(Nc1ccccc1)c1ccc(S(=O)(=O)N2CCCC2)cc1,-0.9,0.68,6,i,-4.9,-2,-7,-8,2.5
Cc1c(Cl)cccc1NC(=S)N1CCC(N(C)CC2CCCO2)CC1 (stereo not drawn),4.8,0.69,-4,i,5.8,3,5,2,-1.6
CC(C)(C)c1nc(SCC(=O)c2ccccc2)c2ccccc2n1,2.8,0.65,20,i,-1.1,?,2,3,0.7

# (listing goes on)
SMILES,UCH37 inh,Ecoli growth,B2AR ag,FGF22 binding,HNF4A DNA FP,ALR inh,Ecoli rRNA inh,Ecoli rRNA inh OD600,Ecoli rRNA inh RFP
CCOc1ccc(N(CC(=O)NCc2ccco2)S(C)(=O)=O)cc1,2.2,0.7,2,nt,0.1,-4,nt,nt,nt
O=C(NCC1CCCO1)Nc1ccc(Cl)cc1 (stereo not drawn),-6.3,0.71,-9,nt,-0.6,-7,nt,nt,nt
COc1ccc(-c2nnn(CC(=O)NCc3ccc4c(c3)OCO4)n2)cc1OC,3.8,0.69,-5,i,-1.6,-2,8,8,-1.3
CC(C)(C)CC(=O)N1CCN(Cc2ccc3c(c2)OCO3)CC1,-1.2,0.64,-7,i,-2.5,-27,2,0,0.8
COc1ccccc1NC(=O)CSc1nc(O)cc(=O)n1-c1ccccc1OC,0.8,0.65,-5,nt,3.8,3,nt,nt,nt
O=C(Nc1ccncc1)c1ccc2c(c1)C(=O)N(CC1CCCO1)C2=O (stereo not drawn),2.8,0.66,9,nt,1.7,nt,nt,nt,nt
Cc1ccc(CNC(=O)Cc2cn(C)c3ccccc23)cc1,0.2,0.65,3,i,2.5,3,-9,-9,3.4
CCOC(=O)c1sc(NC(=O)CN(CC)CC)c(C(=O)OCC)c1C,-3.3,0.71,-8,nt,-2.0,-5,nt,nt,nt
CCCC(=O)NCCc1cc2ccc(C)c(C)c2[nH]c1=O,-0.1,0.75,0,i,2.7,5,5,12,0.1
O=C(OC(C(=O)NCc1ccc2c(c1)OCO2)c1ccccc1F)c1ccco1 (stereo not drawn),1.0,0.72,-2,nt,-1.8,-1,nt,nt,nt
COc1ccc(S(=O)(=O)N(C)C[C@@H]2OCc3cnnn3CCCC(=O)N([C@H](C)CO)C[C@H]2C)cc1,nt,nt,nt,i,2.9,nt,4&3,27&1,-0.7&0.4
CCCc1c(-c2cccc(Cl)c2)ncn1Cc1ccccc1OC,nt,nt,nt,i,-3.7,nt,-26,-44,-6.2
CCC(NC(=O)CN1CCN(C(=O)c2cccs2)CC1)c1ccc(C)cc1 (stereo not drawn),3.6,0.69,4,i,3.1,-1,-1,0,-3.6
COc1ccccc1CNC(=O)c1cc2ccccc2oc1=O,2.3,0.72,-8,i,3.9,-3,6,0,-3.5
COc1cccc(NC(=O)CN(C)C(=O)/C=C/c2ccc(S(=O)(=O)N3CCCCCC3)cc2)c1,nt,nt,nt,i,2.3,nt,12,-5,3.4
O=C(CCC1CCCC1)Nc1nnc(-c2ccc3c(c2)OCO3)s1,-25,0.64,4,nt,-0.5,-5,nt,nt,nt
O=C(c1cc[n+]([O-])cc1)N1CCc2c([nH]c3ccccc23)C1c1ccccc1Cl (stereo not drawn),5.3,0.73,-3,i,3.1,-15,-30*,-20*,-4.7*
Cc1noc(C)c1C(=O)Nc1nc2ccc(F)cc2s1,0.0,0.68,3,i,6.4,-2,12,12,8.4
Cc1ccc(-c2nc(C)sc2CC(=O)OCC(=O)Nc2ccc(F)c(Cl)c2)cc1,-0.1,0.67,-3,i,4.1,-7,-11,-3,9.7
O=C1N[C@@H](Cc2cn(S(=O)(=O)c3ccc([N+](=O)[O-])cc3)c3ccccc23)C(=O)N[C@H]1Cc1ccccc1,0.0,nt,6,i,1.9,-2,5,5,-1.3
O=C(Nc1nc2c(s1)CCCC2)c1ccc(Br)o1,2.3,0.68,-4,nt,0.4,54,nt,nt,nt
